Source: PubChem BioAssay (several laboratories)
DPM-DC inhibit: inhibitors of Streptococcus pneumoniae diphosphomevalonate decarboxylase; actives 0.49% (n = 65,000); calls only at 10 µM; purified DPM-DC, PK/LDH coupled NADH fluorescence;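 active = the 320 compounds with the highest percent inhibition in the single-dose primary screen, excluding strongly autofluorescent ones, cut at about 32% in these data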;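 note: kinetic rate of NADH fluorescence loss reporting ADP formed by the decarboxylase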
Bfl-1 inhibitors: displacement of Bid BH3 peptide from Bfl-1 – biochemical, fluorescence polarization, FITC-Bid, mouse, primary screen (AID 432). FITC-Bid BH3 peptide fluorescence polarization displacement; higher % means a stronger effect. one-dose displacement, % at 20 µM; IC50 in µM for titrated hits. actives 0.02% (n = 64,000); in the data active = a potency from the dose series; inactive = the rest, 99 in 100 with displacement below about 15%; note: strong numbers were not always called active
Spn PMK inh: inhibitors of Streptococcus pneumoniae phosphomevalonate kinase; purified PMK, PK/LDH-coupled NADH absorbance 340 nm; inhibition, % at 10 µM; actives 0.49% (n = 65,000);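 active = top-ranked compounds by inhibition in the single 10 µM screen, taking a fixed number of the strongest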;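 note: 0% = full reaction with DMSO carrier and 100% = background rate without enzyme reaction; no value below 0 was filed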
KRASV12 cytotoxicity: cytotoxicity in KRAS-transformed pancreatic duct cells, primary screen, cell-based, fluorescence, HTS (AID 431) | HPDE-C7K KRASV12 cells, Alamar Blue viability, 48 h; higher % means a stronger effect | one-dose cytotoxicity, % at 10 µM; EC50 in µM for titrated hits | actives 1.7% (n = 63,000);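 active = compounds whose percent cytotoxicity in the single-dose primary screen, scaled between solvent and toxic-drug controls, exceeds 50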;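 note: 0% = DMSO solvent wells and 100% = doxorubicin-treated wells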
LYP phosphatase: LYP phosphatase inhibitors, primary screen, biochemical, DiFMUP fluorescence, recombinant catalytic domain, 10 µM (AID 606). recombinant LYP catalytic domain, DiFMUP fluorescence; higher % means a stronger effect. one-dose inhibition, % at 10 µM; IC50 in µM for titrated hits. 52,000 tested, under 10 active;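 active = IC50 under 40 µM in the dose-response test; inactive = IC50 of 40 µM or more, or never dose-tested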
Spn PMK inh pilot replicates: second read-out of Spn PMK inh, no call of its own (marks repeat the call); inhibition, %; measured here: pilot screen replicates
DPM-DC inhibit pilot screen %: recorded beside DPM-DC inhibit, whose call it bears; inhibition, %; measured here: pilot screen trials
An asterisk follows results filed as active; i = inactive; . = no result given.

SMILES	DPM-DC inhibit	DPM-DC inhibit pilot screen %	Bfl-1 inhibitors	Spn PMK inh	Spn PMK inh pilot replicates	KRASV12 cytotoxicity	LYP phosphatase
CCCN(CCO)Cc1ccc(Cl)c(Cl)c1	i	.	3.0%	6.0	.	1.0%	11.7%
COCCNC(=O)NC1(C(F)(F)F)Oc2ccc(Cl)cc2O1 (stereo not drawn)	i	.	-2.8%	3.0	.	15.0%	.
O=C(O)c1cc(-c2ccc(Cl)cc2)n[nH]1	i	.	-1.9%	13.0	.	9.4%	4.8%
CCCc1c(OCCCCc2nn[nH]n2)ccc(C(C)=O)c1O	i	0.0	6.0%	11.0	3.5	-4.5%	30.7%
COc1ccc2c(c1)c(CC(=O)OCC(=O)O)c(C)n2C(=O)c1ccc(Cl)cc1	i	2.0	2.8%	0.0	3.5	-4.7%	3.2%
O=P(O)(O)c1ccccc1OCCOCCOc1ccccc1P(=O)(O)O	i	0.0	3.0%	10.0	7.5	-0.2%	3.3%
Cc1cccc(Nc2nc(-c3ccccn3)cs2)n1	i	.	-6.4%	6.0	.	10.2%	4.5%
c1ccc(-c2n[nH]c3c2CCC3)cc1	i	.	-1.1%	14.0	.	14.3%	-16.7%
O=C(CN1CCN(C2CCCCC2)CC1)Nc1ccccc1-c1ccccc1	i	1.0	2.4%	3.0	0.5	7.5%	-8.0%
O=C(c1cccc2ccccc12)N1CCC(N2CCN(c3ccccc3)CC2)CC1	i	0.0	1.7%	1.0	2.0	-16.5%	9.8%
COc1ccc(CN2CCN(c3ccccn3)CC2)cc1OCc1ccccc1	i	.	0.9%	4.0	.	2.6%	7.8%
COc1ccc([C@@H]2Sc3ccccc3N(CCN(C)C)C(=O)[C@@H]2OC(C)=O)cc1	i	2.5	-7.3%	5.0	1.0	4.0%	10.8%
CCOC(=O)N1CCN(C(=O)CN(Cc2ccccc2)S(=O)(=O)c2ccc(OC)c(C)c2)CC1	i	3.0	3.1%	0.0	4.0	-9.3%	-1.5%
COc1cc(CSc2ncn[nH]2)c(OC)cc1CSc1ncn[nH]1	i	.	-3.8%	10.0	.	23.3%	11.6%
CCCCOc1ccc(NC(=O)CN2CCN(C(=O)OCC)CC2)cc1	i	.	-1.1%	0.0	.	3.9%	.
Cc1cnc(NC(=O)C2=C(O)c3ccccc3S(=O)(=O)N2C)s1	i	0.0	1.5%	4.0	0.0	20.2%	9.1%
Cc1ccc(OCCOCCn2ccnc2)c(Br)c1	i	.	-14.4%	0.0	.	-13.9%	8.9%
CC[N+](C)(C)c1cccc(O)c1	i	0.0	-1.5%	4.0	2.5	-7.9%	-1.2%

Sorted by number of heavy atoms (high to low): part of the list above.
SMILES	DPM-DC inhibit	DPM-DC inhibit pilot screen %	Bfl-1 inhibitors	Spn PMK inh	Spn PMK inh pilot replicates	KRASV12 cytotoxicity	LYP phosphatase
CCOC(=O)N1CCN(C(=O)CN(Cc2ccccc2)S(=O)(=O)c2ccc(OC)c(C)c2)CC1	i	3.0	3.1%	0.0	4.0	-9.3%	-1.5%
O=C(c1cccc2ccccc12)N1CCC(N2CCN(c3ccccc3)CC2)CC1	i	0.0	1.7%	1.0	2.0	-16.5%	9.8%
COc1ccc2c(c1)c(CC(=O)OCC(=O)O)c(C)n2C(=O)c1ccc(Cl)cc1	i	2.0	2.8%	0.0	3.5	-4.7%	3.2%
CCCCOc1ccc(NC(=O)CN2CCN(C(=O)OCC)CC2)cc1	i	.	-1.1%	0.0	.	3.9%	.
COc1cc(CSc2ncn[nH]2)c(OC)cc1CSc1ncn[nH]1	i	.	-3.8%	10.0	.	23.3%	11.6%
Cc1cnc(NC(=O)C2=C(O)c3ccccc3S(=O)(=O)N2C)s1	i	0.0	1.5%	4.0	0.0	20.2%	9.1%
COCCNC(=O)NC1(C(F)(F)F)Oc2ccc(Cl)cc2O1 (stereo not drawn)	i	.	-2.8%	3.0	.	15.0%	.
Cc1cccc(Nc2nc(-c3ccccn3)cs2)n1	i	.	-6.4%	6.0	.	10.2%	4.5%
CCCN(CCO)Cc1ccc(Cl)c(Cl)c1	i	.	3.0%	6.0	.	1.0%	11.7%
O=C(O)c1cc(-c2ccc(Cl)cc2)n[nH]1	i	.	-1.9%	13.0	.	9.4%	4.8%
c1ccc(-c2n[nH]c3c2CCC3)cc1	i	.	-1.1%	14.0	.	14.3%	-16.7%
CC[N+](C)(C)c1cccc(O)c1	i	0.0	-1.5%	4.0	2.5	-7.9%	-1.2%

An excerpt, so the mix of outcomes need not match the whole.
